Compound activity (PubChem)
Rango dissoc inh: inhibition of RanGTP-driven Rango-importin beta dissociation. O95149+P62826. Biochemical FRET Rango-importin beta, RanGTP-induced dissociation. Potency, µM (top dose mostly 46.1 µM), for inactives: at the top dose activity change, negative = inhibition. 340,000 compounds, 0.071% hits. AID 540253; active means falling FRET ratio curve, often poorly fitted, with flat reads before Ran was added; inconclusive means other falling curves, or compound fluorescence or quenching; inactive means flat or rising ratio curve;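 further: potency means the concentration at half of the fitted maximal effect; % of control where 0% means no effect; nearly all actives have a fitted effect of over 45% in size; -100% = wells without RanGTP and RCC1; the record marks most hits as doubtful in a second field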
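Two FRET readings bracket the reaction: one 5 min after compound meets Rango–importin beta, another 45 min after RanGTP-RCC1 (0.6 uM Ran, 0.2 uM RCC1, 2 mM GTP) is added. Only the second defines inhibition.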
GLA inh pH 4.5: inhibitors of human alpha-galactosidase A at pH 4.5; P06280; purified enzyme, 4-MU-alpha-Gal fluorescence, pH 4.5; activity change, negative = inhibition, % at 105 µM; 230,000 tested, under 10 active; inconclusive = small, poorly fitted or top-dose-only inhibition, or a rising curve; inactive = flat fitted curve, though single readings scatter; no compound was filed as active;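 further: 0% = full activity with enzyme and -100% = basal without enzyme; dose as in the result columns while the protocol names 77 µM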
Target sequence (P06280 whole entry, looked up): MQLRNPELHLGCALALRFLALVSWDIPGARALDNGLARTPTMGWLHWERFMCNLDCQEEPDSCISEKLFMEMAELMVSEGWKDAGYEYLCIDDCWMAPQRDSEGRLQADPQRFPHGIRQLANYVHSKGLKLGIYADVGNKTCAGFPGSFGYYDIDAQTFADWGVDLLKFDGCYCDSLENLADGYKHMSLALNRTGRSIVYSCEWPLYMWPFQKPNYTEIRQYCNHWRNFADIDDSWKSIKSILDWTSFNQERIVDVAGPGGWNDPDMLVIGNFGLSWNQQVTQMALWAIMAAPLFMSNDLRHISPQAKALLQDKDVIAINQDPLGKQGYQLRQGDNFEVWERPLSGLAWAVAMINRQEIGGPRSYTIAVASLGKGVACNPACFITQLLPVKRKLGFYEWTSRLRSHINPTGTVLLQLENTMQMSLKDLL
Rango complex inh: Rango-importin beta binding inhibition; Potency, µM (highest dose often 92.2 µM), without a hit: top-dose inhibition of complex formation; 340,000 compounds, 0.031% hits; Q14974; Rango CFP/YFP FRET sensor + importin beta, 45 min; active = rising FRET ratio curve, often small or poorly fitted; inconclusive = mostly compound fluorescence or quenching in the first reads; inactive = flat curves in all reads;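 further: potency means the concentration at half of the fitted maximal effect; 0% = DMSO wells and 100% = buffer wells lacking importin beta; nearly all actives have a fitted effect of over 15% in size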
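FRET biosensor (snurportin 1 IBB flanked by EYFP and cerulean), 50 nM, with compound 5 min, then 0.125 microM importin beta in PBS, 1 mM DTT, 0.02% Tween-20, 0.1% BSA. CFP/YFP ratio read after 45 min at room temperature; pre-read flags interference.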
miR-21 reporter: miR-21 reporter, rising signal | HeLa miR-21 FLuc reporter, luciferase, 48 h | Potency, µM (series often up to 38.3 µM), inactives show at the highest dose reporter change, positive = more light | 340,000 tested, under 10 active | AID 2288; active = well fitted rising curve with a large enough effect; inconclusive = small, poorly fitted or top-dose-only effect; inactive = no such curve, though single readings can be large or run the other way;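 further: % of control where 0% means no effect; miR-21 action dims this reporter so a rising signal means less miR-21 action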
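Using DMEM plus 10% FBS, HeLa miR-21-FLuc cells are incubated with test compounds (final up to about 40uM) for 48 hours; firefly luciferase signal is then imaged following reagent-mediated lysis.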
* hit, by the source's call; ? = inconclusive; . = not tested or not shown; & = joins results of further samples.

SMILES	Rango dissoc inh	GLA inh pH 4.5	Rango complex inh	miR-21 reporter
CCOCCCNC(=O)C1CCN(C(=O)Nc2ccc(Cl)cc2)CC1	7%	-7	-2.4%	-5%
O=C(NCCN1CCc2ccccc2C1)C1CCN(S(=O)(=O)N2CCCCC2)CC1	-1%	1	-4.6%	0%
O=C(NCCS(=O)(=O)N1CCCCCC1)c1ccccc1	-10%	.	6.0%	.
NCCSC1CC(=O)N(c2ccc(F)cc2)C1=O (stereo unspecified)	-7%	.	-1.9%	-10%
O=C(CN(C(=O)CNC(=O)c1ccco1)c1ccc2c(c1)OCCO2)NC1CCCCC1	-16%	-2	2.0%	-2%
O=C(C1=NN[C@@H]2C(=O)N(c3ccccc3C(F)(F)F)C(=O)[C@H]12)c1ccc2ccccc2n1	?	-4	?	12%
O=C(NC1CCCCC1)NC1CCN(C(=S)NCc2ccco2)CC1	-1%	-4	1.1%	-3%
CC1CCC(NC(=O)COC(=O)c2ccco2)CC1 (stereo unspecified)	4%	.	4.4%	.
CCc1ccc(C(=O)NNC(=O)C2CSC3(C)CCC(=O)N23)cc1 (stereo unspecified)	-4%	.	-0.1%	.
COc1ccc(-c2cn[nH]c2-c2ccc(OC)cc2O)cc1	1%	.	-1.6%	24%
O=C(O)Cn1c(=S)sc2ccccc21	-7%	8	5.8%	-3%
Cc1cc(C)n(C(=O)CNc2ccc(C)c(C)c2)n1	6%	-3	0.5%	-21%
CCOC(=O)N1CCC(NC(=O)CSCc2nc(-c3cccc(OC)c3)oc2C)CC1	?	-2	3.9%	17%
O=C(Nc1ccc(N2CCN(C(=O)c3ccco3)CC2)cc1)c1cc(Br)ccc1Cl	2%	.	-4.2%	.
CCCCC12CN3CCN(CC(C3)/C1=N\NC(=O)Nc1ccccc1)C2	-14%	-2	0.4%	-13%
Cc1[nH]n(-c2ccccc2)c(=S)c1C=Nc1cccc([N+](=O)[O-])c1	-7%	11	1.8%	-11%
O=C(c1cccc([N+](=O)[O-])c1)N1CCN(c2cccc(Cl)c2)CC1	-6%	-5	-4.2%	18%
Cc1cc(C)c2c(CN3CCN(C)CC3)cc(=O)oc2c1	13%	2	5.7%	-5%
C=C(C)C1CC=C(C)/C(=N/NC(=O)C2CC2c2ccccc2)C1 (stereo unspecified)	19%	7	-3.4%	7%
CCOC(=O)[C@H]1[C@H]2COc3cc(OC)ccc3[C@@H]2N2C(=O)c3cc(C)ccc3NC(=O)[C@@]12C	-7%	.	1.1%	.
Cn1c(=S)n(C)c2ccccc21	7%	.	-0.3%	-13%
O=c1cc(-c2ccccc2)nc2n1Cc1ccccc1-2	-2%	-9	4.0%	-24%
COc1ccccc1NC(=O)C(C)N(C)Cc1ccc(Cl)s1 (stereo unspecified)	2%	.	-0.4%	-6%
COc1ccc2c(c1)c(=O)oc1cc(OC(C(=O)O)c3ccccc3)ccc12 (stereo unspecified)	-4%	.	-1.4%	-3%
C=CCc1cccc(/C=N/NC(=O)C(C)Nc2cccc(C)c2)c1O (stereo unspecified)	-11%	-10	0.8%	27%
COc1ccccc1NC(=O)c1c(Br)cnn1C	0%	-1	?	-11%
CC(OC(=O)c1ccc(NC(=O)CC#N)cc1)C(=O)NC(c1ccccc1)c1ccccc1 (stereo unspecified)	-6%	.	-1.0%	.
Cc1ccc(C(=O)CCC(=O)NNC(=O)c2ccccc2O)cc1	-9%	.	2.5%	.
CCN(CC)C(=O)COc1ccc2c(c1)C(=O)CC(C)(C)O2	-15%	30	2.3%	-13%
N#Cc1c(-n2cccc2C=O)sc2c1CCCC2	-10%	-18	1.2%	-2%

Part of the list above in order of molecular weight, rising.
SMILES	Rango dissoc inh	GLA inh pH 4.5	Rango complex inh	miR-21 reporter
N#Cc1c(-n2cccc2C=O)sc2c1CCCC2	-10%	-18	1.2%	-2%
CCN(CC)C(=O)COc1ccc2c(c1)C(=O)CC(C)(C)O2	-15%	30	2.3%	-13%
Cc1ccc(C(=O)CCC(=O)NNC(=O)c2ccccc2O)cc1	-9%	.	2.5%	.
C=CCc1cccc(/C=N/NC(=O)C(C)Nc2cccc(C)c2)c1O (stereo unspecified)	-11%	-10	0.8%	27%
COc1ccccc1NC(=O)C(C)N(C)Cc1ccc(Cl)s1 (stereo unspecified)	2%	.	-0.4%	-6%

The listing continues.
SMILES	Rango dissoc inh	GLA inh pH 4.5	Rango complex inh	miR-21 reporter
COc1ccc(F)cc1CN1CCN(c2cc(C)nc3c4c(C)cc(C)nc4nn23)CC1	.	?	.	5%
COc1cccc(/C=C/C(=O)c2ccc(NC3=NCCCS3)cc2)c1	3%	-11	0.7%	6%
Cc1ccc(CNS(=O)(=O)/C=C/c2ccc3c(c2)OCO3)cc1	-21%	0	3.1%	-14%
CC(=O)N1CCN(C(=O)c2cccc(S(=O)(=O)Nc3c(C)n(C)n(-c4ccccc4)c3=O)c2)CC1	20%	.	2.5%	.
COc1ccc(NC(=O)CN(C)CC(=O)Nc2ccc3c(c2)CCC3)cc1	-8%	-6	5.1%	-2%
N/C(=N\OC(=O)Nc1ccc(Cl)cc1)c1ncc(C(F)(F)F)cc1Cl	1%	2	2.5%	-32%
O=C(CCc1nnc(CCc2c[nH]c3ccccc23)o1)NC1CCC1	-7%	3	-3.8%	-38%
Cc1noc(N)c1C(=O)Nc1ccc(C(C)(C)C)cc1	19%	4	2.9%	-36%
Cc1cc(C)cc(C(=O)NC(CC(N)=O)c2ccc(NC3CCCCCCCCCCC3)c([N+](=O)[O-])c2)c1 (stereo unspecified)	15%	.	0.1%	1%
Fc1ccccc1CNCCC(Cc1ccccc1)c1ccc2c(c1)OCO2 (stereo unspecified)	-18%	4	?	13%
O=C(CSc1ncnc2scc(-c3ccccc3)c12)NCc1ccc2c(c1)OCO2	3%	-5	?	-8%
CCOC(=O)C1CCN(C(=O)Cc2c(C(=O)O)[nH]c3ccccc23)CC1	-4%	0	-2.6%	-3%
CCCc1c(C)nc(N2CCN(c3ccc(F)cc3)CC2)[nH]c1=O	1%	.	?	-1%
O=Cc1c(Sc2ccccc2)nc2ccccn2c1=O	-9%	-2	-6.7%	27%
CCOC(=O)C[C@H]1c2cc(F)ccc2S(=O)(=O)N1C1CCCCC1	-9%	.	2.1%	.
CCOC(=O)Nc1ccc([N+](=O)[O-])cc1C	1%	0	-0.5%	1%
O=C1c2ccccc2NC(c2ccc(-c3cccc(Cl)c3)o2)N1O (stereo unspecified)	1%	5	0.0%	-5%
CC1Cc2cc(S(=O)(=O)NCc3ccccc3)ccc2N1C(=O)C1CCC1 (stereo unspecified)	-11%	.	4.8%	0%&1%
O=C(CSc1nnnn1C1CCCCC1)NNC(=O)c1ccco1	?	5	-2.1%	-2%
COc1ccc(C(C)=O)cc1COC(=O)c1ccc(S(=O)(=O)N2CCOCC2)cc1	20%	3	-3.8%	0%
CCn1nnc(-c2ccccc2NC(=O)C(F)(F)F)n1	13%	11	1.4%	-17%
CCOc1ccc(/C=C/C(=O)OCC(=O)NCCc2ccc(OCC)c(OCC)c2)cc1OC	3%	.	-1.8%	.
Cc1cccc(NC(=O)CSCC(=O)Nc2cc(Cl)ccc2N2CCOCC2)c1	-13%	.	?	.
O=C(NC1CCCCCC1)c1cc(S(=O)(=O)N2CCC3(CC2)OCCO3)ccc1F	-5%	1	-0.6%	-12%
CC(=O)c1ccc(-n2nnnc2SCC(=O)NC2CCCCC2)cc1	-8%	.	-2.4%	0%
COCC(C)n1c(C)cc(C(=O)COC(=O)CCc2nc3ccccc3c(=O)[nH]2)c1C (stereo unspecified)	-2%	-1	4.9%	0%
Cc1ccc(OCC(=O)N2CCN(C(=O)c3ccncc3)CC2)cc1	3%	9	-2.1%	-1%
CC1=C(C)CC2C(C1)C(=O)c1ccc(Br)cc1S2(=O)=O (stereo unspecified)	-14%	.	-0.5%	.
c1cc2c(cn1)cnc1cscc12	-4%	6	-0.3%	-17%
O=C(CCNS(=O)(=O)c1cccc2nsnc12)NC1CCN(Cc2ccccc2)CC1	-6%	-12	?	-6%

Whole records from above. Order of screens: Rango dissoc inh, GLA inh pH 4.5, Rango complex inh, miR-21 reporter
CCOc1ccc(/C=C/C(=O)OCC(=O)NCCc2ccc(OCC)c(OCC)c2)cc1OC is listed with 3%, ., -1.8%, .
CCn1nnc(-c2ccccc2NC(=O)C(F)(F)F)n1 is listed with 13%, 11, 1.4%, -17%
Cc1cccc(NC(=O)CSCC(=O)Nc2cc(Cl)ccc2N2CCOCC2)c1 is listed with -13%, ., ?, .

Continuation:
SMILES	Rango dissoc inh	GLA inh pH 4.5	Rango complex inh	miR-21 reporter
Cc1[nH]n(-c2ncc(-c3ccccc3)s2)c(=O)c1C(c1ccc(Br)cc1)C(C#N)C#N (stereo unspecified)	13%	-16	4.7%	-3%
COc1ccc2[nH]c3nc(SCC(=O)NC4CC4)nnc3c2c1	2%	.	2.9%	8%
O=C(Nc1ccc(OC(=O)c2cccnc2)cc1)c1cccnc1	1%	3	3.2%	-4%
COc1ccc(C(=O)OCC(=O)N2CCC(C)CC2)cc1S(=O)(=O)N1CCOCC1	5%	.	-3.0%	.
CCn1nc(C(=O)NNC(=O)c2ccccc2OCc2c(C)noc2C)c2ccccc2c1=O	2%	.	2.2%	.
Cc1ccc(NC(=O)CCCC(=O)OC(C)C(=O)c2ccccc2)cc1 (stereo unspecified)	18%	.	0.5%	-3%
COc1ccccc1Nc1nc(NCCO)nc(N)c1[N+](=O)[O-]	8%	-4	2.4%	5%
CC(C)S(=O)(=O)C1=NSC2=NC(=O)/C(=C\c3ccc(-c4ccccc4)o3)C(=N)N21	?	-14	?	-4%
O=C(Nc1ccc(C(=O)Oc2ccccc2)c(O)c1)c1ccccc1	-4%	-5	-3.1%	-24%
O=C(CCNC(=O)C1CCN(S(=O)(=O)c2ccccc2)CC1)NCCc1cccc(F)c1	-7%	.	-5.4%	-3%
COc1ccccc1-n1cccc1C=O	0%	0	-0.4%	-1%
COc1ccccc1/C=C1/C(=O)N(c2cc(C)cc(C)c2)C(c2cccc([N+](=O)[O-])c2)S1(=O)=O (stereo unspecified)	1%	3	-2.3%	-6%
O=C(CCSCCC(=O)Nc1c(F)c(F)c(F)c(F)c1F)Nc1c(F)c(F)c(F)c(F)c1F	13%	-14	2.0%	2%
CCCc1cc(C(=O)Nc2ccc(C)cc2)no1	-10%	1	1.9%	-59%
Cc1cccc(NC(=O)CCNS(=O)(=O)c2ccc3[nH]c(=O)oc3c2)c1	-11%	.	-3.0%	-1%
Cc1ccc(Cc2c(C)nc3nc(SCC(=O)NCCCN4CCCCCC4)nn3c2C)cc1	-11%	.	-0.8%	-1%
COc1ccc(N(C)C(=O)Nc2ccc3nsnc3c2)cc1	?	3	?	-19%
CCn1c(SCc2ccc(F)cc2)nc2c(c1=O)SCC2	2%	-4	4.9%	-5%
O=C(NCCCCCCCCCNC(=O)C(F)(F)F)C(F)(F)F	-16%	3	13%	2%
Cc1oc(-c2ccccc2Cl)nc1CS(=O)CC(=O)N1CCN(c2ccccc2)CC1 (stereo unspecified)	15%	.	-2.8%	4%
Cn1c(N)c(C(=O)Nc2c(Cl)cccc2Cl)sc1=S	1%	-2	4.1%	3%
CCCC(=O)NC(=S)Nc1cccc(NC(=O)c2ccccc2)c1	-4%	1	3.4%	-7%
COc1ccccc1N1CC(C(=O)Nc2nc(C)cs2)CC1=O (stereo unspecified)	6%	.	2.6%	.
Cc1c(Nc2c3ccccc3nc3ccccc23)c(=O)n(-c2ccccc2)n1C	-24%	-11	?	-5%
O=C(CNC(=O)c1ccc(Cl)cc1)OCC(=O)N1CCCC1	-5%	-4	-4.6%	0%
CCOC(=O)C1=NN(c2ccc(C)cc2)CC1C(=O)OC (stereo unspecified)	-2%	-12	-0.1%	-13%
Cc1ccc(Cl)cc1NC(=O)COC(=O)Cn1cnc2c1c(=O)n(C)c(=O)n2C	-3%	-22	0.8%	-1%
CC1(C)CC(=O)C(/C=N/c2ccccn2)=C(O)C1	9%	4	-4.1%	-6%
COc1ccc(CCN(C)C(=O)N2CCOCC2)cc1OC	-1%	1	1.0%	-3%
COc1ccc(C2=NS(=O)(=O)N(C)C(C(=O)N3CCN(C)CC3)=C2)cc1	-3%	.	-0.4%	-1%
CC1Cc2ccccc2N1CC(=O)NC(=O)NC1CCCC1 (stereo unspecified)	0%	2	?	3%

A portion of the library. The share of hits here may be higher or lower than overall.
